# UCH37 inh = inhibitors of human UCH37 deubiquitinase, primary screen, biochemical, Ub-AMC cleavage, fluorescence; Ubiquitin carboxyl-terminal hydrolase isozyme L5 (Homo sapiens), Q9Y5K5; purified proteasome/UCH37; inhibition, % (test concentration not listed); hit rate 0.33% among 330,000; AID 588478, 2011;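 active = mean of two replicates above 20%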;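 note: 0% = compound-free wells with enzyme and 100% = wells lacking proteasome; stock transfer was 100 nL into about 20 µL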
# Target sequence (Q9Y5K5 whole entry, looked up): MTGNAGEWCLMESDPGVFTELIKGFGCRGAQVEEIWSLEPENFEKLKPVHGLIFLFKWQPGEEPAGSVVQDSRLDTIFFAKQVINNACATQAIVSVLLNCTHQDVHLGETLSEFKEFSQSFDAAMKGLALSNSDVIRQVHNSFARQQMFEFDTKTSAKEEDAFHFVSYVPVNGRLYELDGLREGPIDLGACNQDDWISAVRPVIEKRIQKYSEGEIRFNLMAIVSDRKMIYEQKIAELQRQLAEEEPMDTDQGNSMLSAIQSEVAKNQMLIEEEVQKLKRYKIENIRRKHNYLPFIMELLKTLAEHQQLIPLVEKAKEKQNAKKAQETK
#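 Signal – fluorescence, ex 355 nm, em 460 nm · System – Proteasome-bound UCH37 · Input – 0.15 nM proteasome as dispensed · Timing – 30 min preincubation with enzyme, 25 min cleavage at room temperature · Read-out basis – percent inhibition of cleavage signal versus uninhibited and no-proteasome wells · Medium – Tris-HCl pH 7.4 with ATP-MgCl2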
# ALR H2O2 inh = inhibitors of human ALR sulfhydryl oxidase, primary screen, biochemical, H2O2 detection, HRP-luminol luminescence, single point; AID 485317, 2010; inhibition, % (test concentration not listed); hit rate 3.8% among 290,000; FAD-linked sulfhydryl oxidase ALR (Homo sapiens), P55789; purified ALR, DTT oxidation;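 active = mean and each replicate at 75% or more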;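 note: stock transfer was 7.5 nL into about 7.5 µL; 0% = neutral wells and 100% = wells with inactivated enzyme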
# Target sequence (P55789 whole entry, looked up): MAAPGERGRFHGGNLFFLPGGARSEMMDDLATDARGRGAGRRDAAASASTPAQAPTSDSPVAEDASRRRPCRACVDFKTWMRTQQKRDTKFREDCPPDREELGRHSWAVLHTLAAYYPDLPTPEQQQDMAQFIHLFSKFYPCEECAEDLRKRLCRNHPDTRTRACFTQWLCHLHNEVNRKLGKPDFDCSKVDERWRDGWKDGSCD
# HNF4A DNA FP = change in binding of human HNF4A to DNA, primary screen, biochemical, fluorescence polarization, FITC-DNA; Hepatocyte nuclear factor 4-alpha (Homo sapiens), P41235; 1 h; activity change, % at 10 µM; hit rate 0.3% among 360,000; in the data active = activity change above about 30%, passing the limit was not always enough;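 note: controls were the assay level and a saturating level of protein; the project sought stronger binding though the title names inhibitors; some compounds called inactive have numbers as strong as hits; positive values seem to mean higher polarization but the record does not say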
# Target sequence (P41235 whole entry, looked up): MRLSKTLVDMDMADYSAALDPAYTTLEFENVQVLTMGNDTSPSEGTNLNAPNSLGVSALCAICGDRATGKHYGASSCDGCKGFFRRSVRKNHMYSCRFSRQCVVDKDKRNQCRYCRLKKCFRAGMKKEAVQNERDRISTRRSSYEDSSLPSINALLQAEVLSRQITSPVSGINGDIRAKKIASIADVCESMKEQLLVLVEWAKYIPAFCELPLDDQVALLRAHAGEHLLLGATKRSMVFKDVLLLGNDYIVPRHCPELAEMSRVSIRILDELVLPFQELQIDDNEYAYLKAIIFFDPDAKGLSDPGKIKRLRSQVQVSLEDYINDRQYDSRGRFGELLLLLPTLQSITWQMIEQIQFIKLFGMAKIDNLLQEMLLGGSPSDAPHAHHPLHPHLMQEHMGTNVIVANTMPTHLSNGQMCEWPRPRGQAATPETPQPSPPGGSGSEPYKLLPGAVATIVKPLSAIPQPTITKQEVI
# E coli growth = E. coli growth inhibition, primary screen, OD600; Escherichia coli growth, 23 h; active compounds read low; OD600 absorbance (test concentration not listed); hit rate 0.21% among 330,000;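 active = OD600 absorbance below the run mean of sample wells minus 3.6 SD, in any replicate, cut at about 0.56 in these data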;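 note: stock transfer was 300 nL into about 60 µL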
# FGF22 binding = binders of human FGF22 protein, primary screen, FGF22 synaptogenesis inhibitor project, biophysical, thermal shift, single point; recombinant FGF22 thermal shift, SYPRO orange fluorescence; percent of sucrose octasulfate shift, DMSO zero; Fibroblast growth factor 22 (Homo sapiens), Q9HCT0; hit rate 1.5% among 340,000; AID 651658, 2012; calls only at 9.99 µM;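 active = melting point raised past a set limit in the mean and every replicate; three in four hits are not shown here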
# rRNA inh HTS = reduced GFP signal of wild-type E. coli, primary screen, bacterial rRNA inhibitor project, GFP/RFP fluorescence, OD600, single point. E. coli WT GFP vs humanized-ribosome RFP mutants, 24 h; active compounds read low; DMSO median 0, no signal -100. GFP signal change (wild-type ribosome), % (test concentration not listed). hit rate 1.6% among 350,000;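 active = significant combined selectivity score with lowered wild-type GFP, culture density cut under 30%, mutant RFP and density less affected; inactive = any of these conditions unmet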; note: one replicate is shown; some compounds called inactive have numbers as strong as hits
# B2AR ag = beta2AR agonists driving receptor internalization, primary screen, cell-based, FAP fluorogen, flow cytometry. Beta-2 adrenergic receptor (Homo sapiens), P07550. Am2.2-beta2AR cells; reference of the scale not given here. response, % (concentration not given with the values). hit rate 0.43% among 340,000;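 active = response above a set limit, near 3 SD of response in nonfluorescent compounds, cut at about 42% in these data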;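 note: stock transfer was 100 nL into about 11 µL; a reference agonist was the positive control; negative values mostly stem from fluorescent compounds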
# rRNA inh HTS OD600 = recorded beside rRNA inh HTS, whose call it bears; OD600 change, %; measured here: OD600 growth;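 optical density of the mix in the first replicate; 0 = DMSO median and -100 = no signal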
# rRNA inh HTS RFP = recorded beside rRNA inh HTS, whose call it bears; RFP signal change, %; measured here: RFP humanized mutant strains;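 first replicate; 0 = DMSO median and -100 = no signal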
# An asterisk follows results filed as active; i = inactive; · = no result given; & = joins results of further samples. Only part of the results is shown. The share of hits here may be higher or lower than overall.
SMILES,UCH37 inh,ALR H2O2 inh,HNF4A DNA FP,E coli growth,FGF22 binding,rRNA inh HTS,rRNA inh HTS OD600,rRNA inh HTS RFP,B2AR ag
COc1ccc(NC(=S)N(CCCN2CCCC2)Cc2ccco2)cc1,3.8,·,2.8,0.75,·,17,14,2.4,-2
CC(=NCc1ccco1)C1=C(O)c2ccccc2C1=O,10,2,-0.7,0.66,·,·,·,·,-7
COc1ccc(Cn2c(=S)[nH]c3cc(OC)c(OC)cc3c2=O)cc1,0.7,1,-0.4,0.65,·,-6,-11,-2.9,2
CCCCn1c(N)c(N(CCOC)C(=O)c2ccc3c(c2)C(=O)N(c2ccccc2Cl)C3=O)c(=O)[nH]c1=O,·,0,-2.6,·,i,8,11,-3.0,5
COc1ccc(NC(=O)OCCn2c([N+](=O)[O-])cnc2C)cc1,1.7,-3,-0.7,0.68,i,2,-6,-1.4,-3
Cn1c(=O)c2cc(S(=O)(=O)N3CCOCC3)ccc2n(C)c1=O,4.3,-2,-2.1,0.68,·,·,·,·,12
NC(=O)CSc1nnc2ccc(-c3ccc(F)cc3)nn12,-20,-1,-3.3,0.69,i,-2,0,0.1,-7
COC1CCCN(C(=O)c2ccc3oc(Cc4ccc(Cl)cc4)nc3c2)C1 (stereo unspecified),4.0,-12,2.9,0.7,i,0,10,-0.2,-1
Cc1ccc(OCCNC(=O)c2cc(=O)[nH]c3ccccc23)cc1,-15,-10,0.9,0.66,i,10,2,-7.0,3
OC(COc1ccccc1Cl)CN1CCN(CC(O)COc2ccccc2Cl)CC1 (stereo unspecified),5.3,-2,4.0,0.7,·,·,·,·,9
C=CC[C@@H](CC(=O)N[C@H](CO)Cc1ccccc1)C(=O)N[C@H](COC(=O)[C@@H](CC=C)Cc1ccc(F)cc1)Cc1ccccc1,0.8,2,-5.5,·,i,0,3,2.6,8
COCCN1C(=O)c2oc3c(C)cc(C)cc3c(=O)c2C1c1cccc(O)c1 (stereo unspecified),2.4,-6,2.1,0.74,·,·,·,·,52*
COc1ccccc1CC(=O)NCCc1ccccc1,1.4,-5,5.6,0.67,i,21,13,2.1,-2
C=CCNc1nc(C(=O)OCC(=O)NCc2ccccc2OC)cs1,1.9,-1,2.6,0.64,i,6,2,-0.2,2
CC(c1ccon1)N(C)C(=O)c1ccc2nc(Cc3cccc(Cl)c3)oc2c1 (stereo unspecified),1.5,0,2.4,0.62,i,-28*,-22*,3.6*,9

# Entries above that bear a hit mark in B2AR ag:
smiles	UCH37 inh	ALR H2O2 inh	rRNA inh HTS	rRNA inh HTS OD600	rRNA inh HTS RFP	B2AR ag
COCCN1C(=O)c2oc3c(C)cc(C)cc3c(=O)c2C1c1cccc(O)c1 (stereo unspecified)	2.4	-6	·	·	·	52*

# The results go on.
SMILES,UCH37 inh,ALR H2O2 inh,HNF4A DNA FP,E coli growth,FGF22 binding,rRNA inh HTS,rRNA inh HTS OD600,rRNA inh HTS RFP,B2AR ag
O=[N+]([O-])c1cccc(/C=N\N2CCN(c3ccc(Cl)cc3)CC2)c1,·,-3,-3.0,·,·,·,·,·,-6
COC(=O)Cc1c(C)c2ccc(OCC(=O)N3CCC(C)CC3)c(C)c2oc1=O,-180,-2,0.3,0.68,i,-13,-14,0.5,-17
CCOc1ccc(S(=O)(=O)N2CCOCC2)cc1NC(=O)CN1C(=O)NC(CC)(c2ccccc2)C1=O (stereo unspecified),·,0,-0.2,·,i,-4,1,-0.8,4
COc1ccc(C(=O)Nc2nc3ccc4nc(C)sc4c3s2)cc1,-13,-7,5.4,0.71,i,1,-1,-0.3,19
O=C(CSc1nccn1-c1ccccc1)N1CCc2ccccc21,3.8,72,3.0,0.69,·,·,·,·,-2
COc1ccc(CN2CCNC(=O)C2CC(=O)N(C)C2CCOCC2)cc1OC (stereo unspecified),·,·,-0.8,·,i,13,27,0.8,·
CC1(C)Cc2nc3nc(SCC(=O)NCCc4ccccc4)n(-c4ccccc4)c(=O)c3cc2CO1,-6.3,-18,1.0,0.71,·,·,·,·,4
Cc1nc(N2CCOCC2)c2c(C)c(C(=O)Nc3ccccc3Cl)sc2n1,-1.9,-12,-6.0,0.71,i,12,5,-1.2,-2
CC(C)N(CCCNC(=O)C1CCN(S(=O)(=O)N2CCOCC2)CC1)Cc1ccccc1,0.2,-5,0.8,0.75,·,·,·,·,2
Cc1ccc(-c2nc(NCc3ccc(F)cc3)n(S(C)(=O)=O)n2)cc1,0.8,-11,2.5,0.69,i,3,1,1.7,-1
COc1ccc(OC)c(Cc2nnc(CCC(=O)NCc3nc4ccccc4s3)o2)c1,4.4,3,3.4,0.69,i,6,5,-2.1,1
CCOC(=O)N1CCC(N2CC34C=CC(O3)C(C(=O)Nc3ccc(F)cc3)C4C2=O)CC1 (stereo unspecified),1.4,-10,0.3,0.72,·,·,·,·,4
CCOC(=O)c1cccc(NC(=O)c2c(NCc3ccccc3)[nH]c(=O)[nH]c2=O)c1,0.0,3,-0.6,0.7,·,·,·,·,12
O=C(CNC(=O)c1ccc(Br)o1)NCc1ccccc1Cl,2.8,-4,3.0,0.69,i,7,12,-2.1,-1
CCOC(=O)CCc1c(C)c2ccc(OCc3nn[nH]n3)c(C)c2oc1=O,-244,17,-0.8,0.68,·,·,·,·,-1

# Profiles, quoted from the list. Screens in order: UCH37 inh, ALR H2O2 inh, HNF4A DNA FP, E coli growth, FGF22 binding, rRNA inh HTS, rRNA inh HTS OD600, rRNA inh HTS RFP, B2AR ag
# `O=C(CSc1nccn1-c1ccccc1)N1CCc2ccccc21` reads 3.8, 72, 3.0, 0.69, ·, ·, ·, ·, -2
# `COc1ccc(C(=O)Nc2nc3ccc4nc(C)sc4c3s2)cc1` reads -13, -7, 5.4, 0.71, i, 1, -1, -0.3, 19
# `COC(=O)Cc1c(C)c2ccc(OCC(=O)N3CCC(C)CC3)c(C)c2oc1=O` reads -180, -2, 0.3, 0.68, i, -13, -14, 0.5, -17
# `O=C(CNC(=O)c1ccc(Br)o1)NCc1ccccc1Cl` reads 2.8, -4, 3.0, 0.69, i, 7, 12, -2.1, -1

# Next part.
SMILES,UCH37 inh,ALR H2O2 inh,HNF4A DNA FP,E coli growth,FGF22 binding,rRNA inh HTS,rRNA inh HTS OD600,rRNA inh HTS RFP,B2AR ag
CCOc1cc(N2CCOCC2)c(OCC)cc1NC(=O)COC(=O)[C@H](Cc1c[nH]c2ccccc12)NC(C)=O,-0.5,35,-1.6,0.73,·,·,·,·,-5
O=C(NCCc1ccccc1)c1c[nH]c2ccccc2c1=O,·,·,1.0,·,i,0,-11,4.2,·
CCC1(c2ccc(F)cc2)NC(=O)N(CC(=O)Nc2cc(C)on2)C1=O (stereo unspecified),0.3,·,2.3,0.66,i,15,13,7.3,0
CN(C)c1cc[n+](CC(=O)Nc2cccc([N+](=O)[O-])c2)cc1,1.0,-3,-0.6,0.64,i,13,2,1.5,-4
COc1ccc(-c2nnc(SCC(=O)N3CCOCC3)o2)cc1,3.3,-8,-0.3,0.7,·,·,·,·,0
COc1cccc(CNC(=O)CCC2CCCN(C(=O)c3ccc(C)nc3)C2)c1 (stereo unspecified),0.3,19,3.5,0.69,i,5,7,-1.0,4
CC(=O)c1ccc(OCC(=O)NCC2(N3CCCCC3)CCCCC2)cc1,3.2,2,3.6,0.69,i,7,3,0.9,-5
Cc1cc(S(=O)(=O)N2CCC3(CC2)OCCN3S(=O)(=O)c2cccs2)ccc1F,2.4,1,-3.2,0.69,i,-1,2,-0.7,-1
c1ccc2nc(N3CCOCC3)c(N3CCCC3)nc2c1,-1.1,·,2.3,0.68,i,·,·,·,-2
CCOCc1c(C(=O)NCc2ccccc2CN2CCCC2)oc2ccccc12,3.0,-1,8.2,0.64,i,·,·,·,9
O=C(/C=C/c1ccccc1)NCCS(=O)(=O)N1CCN(c2ccccc2F)CC1,0.4,-6,-3.0,0.63,i,-2,0,0.3,-1
CC1(C)CC(NC(=O)CC(c2ccccc2)c2ccccc2)CC(C)(C)N1,1.7,6,-0.1,0.73,·,·,·,·,-6
C[C@@H]1CN([C@@H](C)CO)C(=O)CCCn2nncc2CO[C@@H]1CN(C)S(=O)(=O)c1cccs1,·,·,-0.5,·,i,8&-2,9&-5,-0.5&1.7,·
CN1CCN(CC(O)COC(c2ccc(Cl)cc2)c2ccc(Cl)cc2)CC1 (stereo unspecified),4.0,·,5.1,0.64,i,2,-12,8.7,18
Cc1ccc(C(=O)/C=C/c2ccc(-c3ccccc3[N+](=O)[O-])o2)cc1,1.7,-19,-7.7,0.73,·,·,·,·,5
COCCNC(=O)c1ccc(NC(=O)C2(c3ccccc3)CCCC2)cc1,-1.1,-2,-0.5,0.72,i,11,4,3.2,14
O=C(COC(=O)C1CCN(c2ccc(C(F)(F)F)cn2)CC1)Nc1cc(F)ccc1F,2.6,-1,0.4,0.7,i,-35,-56,-5.9,11
O=C(COc1ccc(F)cc1)N(CC1=CCS(=O)(=O)C1)c1ccccc1,6.4,2,-4.1,0.72,·,·,·,·,-7
Cc1ccc(NC(=O)c2ccc3[nH]c(=O)c(=O)[nH]c3c2)nc1,-34,0,-1.5,0.73,i,7,11,-0.3,3
COc1ccc(C)cc1-n1nnnc1SCn1nnc2ccccc2c1=O,0.8,·,-4.6,0.7,·,·,·,·,-5
O=C(c1ccccc1)c1c[nH]c(C(=O)C(Cl)(Cl)Cl)c1,5.0,7,0.8,0.68,i,6,-2,4.9,4
CC(C)(C)c1ccc(OCC(=O)N/N=C/c2cc(Br)ccc2OC(=O)c2ccco2)cc1,·,-4,-1.3,·,·,·,·,·,9
NC(=O)c1ccsc1NC(=O)COC(=O)COc1ccc(C=O)cc1,·,1,0.6,·,i,4,4,1.6,3
CCOc1ccccc1N(CC(=O)Nc1ccc(S(=O)(=O)N2CCOCC2)cc1)S(=O)(=O)c1ccccc1,2.2,-10,-3.0,0.8,·,·,·,·,10
CCCCNC(=O)COC(=O)c1ccc(NC(C)=O)cc1,1.8,-7,0.1,0.72,i,11,13,0.7,-5
O=C(NCCN1CCCC1)c1ccc2c(c1)N(Cc1ccccc1)C(=O)c1ccccc1S2(=O)=O,2.8,-14,-1.2,0.69,i,6,6,2.7,4
COc1ccc(Nc2ncnc3c2cnn3Cc2ccccc2)cc1,-0.4,-20,0.5,0.65,·,·,·,·,3
COc1cccc(C(=O)OCC(=O)N2CCc3ccccc32)c1OC,-1.4,·,1.2,0.63,·,-4,2,1.1,-2
C=CCn1c(SCc2cc(C(C)=O)ccc2OCC)nc2ccccc2c1=O,-2.3,-6,-0.2,0.7,i,7,4,-0.5,0
CCN(C(=O)COC(=O)c1ccccc1SCC(=O)NC1CCCCCCC1)C1CCS(=O)(=O)C1 (stereo unspecified),1.8,-21,-4.2,0.7,·,·,·,·,3
CCCC(=O)Oc1c(S(=O)(=O)c2ccc(C)cc2)c(C)nn1C(C)(C)C,2.9,·,2.0,0.7,i,-6,-5,-2.9,-4
CCOC(=O)C1CCCN(S(=O)(=O)c2c(C)[nH]c(C)c2C(=O)N2CCCC2)C1 (stereo unspecified),-1.0,-6,0.2,0.67,i,12,18,-0.7,-4
Cc1cnc(NC(=O)Cc2c[nH]c3ccccc23)s1,0.8,-16,-1.6,0.6,i,-22*,-12*,2.9*,25
